GIV Gai3 FP – blocks GIV peptide binding to rat Galpha-i3. percent of control (FP), % (test concentration not listed). AID 1224905. P08753. 210,000 tested, 0.42% active. Galpha-i3/FITC-GIV peptide fluorescence polarization, 90 min; stronger effect = lower value; scaled: aluminum fluoride 0%, vehicle 100%;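 active = replicate mean at 85% of control or lower, very high polarization wells dropped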;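 note: wells of about 15 µL received 100 nL stock; the first replicate is given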
Target sequence (P08753 whole entry, looked up): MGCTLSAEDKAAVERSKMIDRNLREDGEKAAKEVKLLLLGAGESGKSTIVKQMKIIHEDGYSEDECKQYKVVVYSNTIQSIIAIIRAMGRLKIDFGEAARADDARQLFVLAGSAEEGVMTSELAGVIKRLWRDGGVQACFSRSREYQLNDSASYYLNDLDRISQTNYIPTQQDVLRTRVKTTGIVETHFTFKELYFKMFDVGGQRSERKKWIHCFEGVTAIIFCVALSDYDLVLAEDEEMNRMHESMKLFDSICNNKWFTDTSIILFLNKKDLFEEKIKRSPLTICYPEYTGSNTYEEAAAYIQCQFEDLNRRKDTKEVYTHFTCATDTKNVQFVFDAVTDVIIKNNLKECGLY
Starred values were filed as active, the others as inactive.

SMILES	GIV Gai3 FP
O=C(Nc1cccc(Cl)c1)C1Oc2ccccc2NC1=O (configuration not stated)	104
Cc1ccc(-c2noc(CSc3nccn3-c3ccc(C)cc3)n2)cc1	106
Cc1ccc(CNC(=O)C2Cc3ccccc3CN2S(=O)(=O)c2ccc(C)cc2)cc1 (configuration not stated)	102
COc1cccc(N2C(=O)C(N3C(=O)c4ccc([N+](=O)[O-])cc4C3=O)C2c2cccs2)c1 (configuration not stated)	108
COc1ccc(-c2noc(CS(=O)(=O)c3ccc(Br)cc3)n2)cc1OC	102
O=C(Oc1ccc(Cl)cc1)c1ccc2nc(-c3ccccc3)c(-c3ccccc3)nc2c1	106
CCOC(=O)c1c(-c2ccccc2)oc2ccc(NS(=O)(=O)c3ccc4c5c(cccc35)C(=O)N4)cc12	113
COc1ccc2cc(C(=O)N3CCC(CC(=O)NCCc4c[nH]c5ccc(OC)cc45)CC3)[nH]c2c1	100
CCOc1ccccc1NC(=O)Nc1nc2c(s1)CN(S(=O)(=O)c1ccccc1)CC2	104
COc1ccc(NC(=O)C2CC(=O)N(C)C(=Nc3ccc(Cl)c(Cl)c3)S2)cc1 (configuration not stated)	102
Cc1ccccc1C(=O)NCc1c(-c2ccccc2)nc2n1CCS2	100
CCOc1ccccc1N1CCN(S(=O)(=O)c2nn(C)cc2C(=O)NCCC(C)C)CC1	102
Cc1ccc(N2C(=O)CSC23C(=O)N(CN2CCC(C)CC2)c2ccccc23)cc1Br (configuration not stated)	106
CN(Cc1ccccc1)C(=O)CN(c1cc(C(F)(F)F)ccc1Cl)S(=O)(=O)c1ccccc1	106
CCOC(=O)C1=C(C)N=c2s/c(=C\c3ccc(O)c(OC)c3)c(=O)n2C1c1ccc(OC(C)C)cc1 (configuration not stated)	112

Random excerpt: 3 records from the list.
SMILES	GIV Gai3 FP
COc1ccc2cc(C(=O)N3CCC(CC(=O)NCCc4c[nH]c5ccc(OC)cc45)CC3)[nH]c2c1	100
CCOC(=O)C1=C(C)N=c2s/c(=C\c3ccc(O)c(OC)c3)c(=O)n2C1c1ccc(OC(C)C)cc1 (configuration not stated)	112
COc1ccc(-c2noc(CS(=O)(=O)c3ccc(Br)cc3)n2)cc1OC	102

(list continues)
SMILES	GIV Gai3 FP
COCc1oc2c(cc(NS(=O)(=O)c3ccc(F)cc3)c3ccccc32)c1C(=O)OC	113
Cc1ccc(Cl)cc1NC(=O)c1cn(-c2cc(-c3noc(C4CC4)n3)ccc2C)nc1C	103
O=C1CSC(c2cn(-c3ccccc3)nc2-c2cccnc2)N1Cc1ccccc1 (configuration not stated)	102
CC1CCN(C(=O)c2cc3c(s2)CCC(C(=O)NCCN2CCOCC2)C3)CC1 (configuration not stated)	105
Cc1cccc(-c2noc(-c3cn(CC(=O)NC4CCc5ccccc54)c4nc(C)ccc4c3=O)n2)c1 (configuration not stated)	137
Cc1cccc(N2CCN(S(=O)(=O)c3cc(-c4nnc(C5CC5)o4)co3)CC2)c1	103
CCC(C)NC(=O)N1CCCC1c1c(C)noc1C (configuration not stated)	101
Clc1cccc(-c2noc(Cc3nc(-c4ccc5c(c4)OCO5)cs3)n2)c1	107
O=S(=O)(CCc1noc(-c2cc3ccccc3[nH]2)n1)c1ccccc1	102
CCOc1ccc(C2C3CN(CC)CC=C3C(C#N)=C(N)C2(C#N)C#N)cc1 (configuration not stated)	125
CCOc1ccc(C2CC(=O)Nc3c2cnn3-c2ccc3nnc(C)n3n2)cc1OCC (configuration not stated)	96
CCN1CCN(C(=O)C2CCN(c3cnc(N4CCSCC4)nc3)CC2)CC1	99
CCCCn1cnc2oc(-c3ccccc3)c(-c3ccccc3)c2c1=N	108
CC(C)c1cc(C2CCCN2S(=O)(=O)c2cnc[nH]2)no1 (configuration not stated)	100
CCOC(=O)CN1C(=O)C(O)(CC(=O)c2ccco2)c2ccccc21 (configuration not stated)	109
Cc1ccc(-c2noc3c(=O)n(CCC(=O)Nc4ccc(Cl)cc4C)cnc23)cc1	102
CCS(=O)(=O)Nc1ccc(C2(C(=O)NCc3ccco3)CCC2)cc1	109
O=C(c1ccc(CN2C(=O)C3CCCN3C(=O)c3ccccc32)cc1)N1CCOCC1 (configuration not stated)	107
CCn1c(=O)c(N2CCC(NC(=O)NCC3CCCO3)CC2)nc2ccccc21 (configuration not stated)	105
CC1=C(C(=O)OCCOc2ccccc2)C(c2ccc(Cl)c([N+](=O)[O-])c2)C2=C(CC(C)(C)CC2=O)N1 (configuration not stated)	116
O=S(=O)(c1ccc2nc(N3CCOCC3)ccc2c1)N1CCCC1	105
CCN1CCN(c2cc(C)nc3nc(CN4CCC5(CC4)OCCO5)nn23)CC1	102
COc1cc(OC)cc(-c2nc(-c3ccc(Br)cc3)c(-c3ccc(Br)cc3)[nH]2)c1	107
O=C(CCCl)NCC1(c2ccccc2)CCCC1	105
O=c1n(Cc2cc(F)cc(F)c2)nc2c(S(=O)(=O)N3CCc4ccccc4C3)cccn12	109
Cc1ccc(Cn2c(=O)c3cccnc3n(-c3ccccc3)c2=O)cc1	105
Cc1ccc(-n2ccc(=O)c(-c3nc(-c4ccccc4C)no3)n2)cc1	104
Cc1cc(Br)ccc1N1C(=O)C2C3c4ccccc4C(C=O)(c4ccccc43)C2C1=O (configuration not stated)	107
CCSc1nnc(-c2nn(C)c3c2CN(S(=O)(=O)c2ccc(Cl)cc2)CC3)n1CC	110
CCN(CC)C(=O)Cn1cnc2sc(C(=O)N3CCN(c4ccccn4)CC3)c(C)c2c1=O	106
O=C1Nc2ccccc2Oc2cc(Cl)c(S(=O)(=O)N3CCOCC3)cc21	104
COc1ccc(CCNC(=O)c2ccc3c(=O)n(-c4ccc(F)cc4)c(=S)[nH]c3c2)cc1OC	110
CCOC(=O)C1=C(O)/C(=C/c2ccccc2OCC(=O)O)SC1=Nc1ccc(C)cc1	120
CCOC(=O)c1c(CN2CCCCC2C)n(-c2ccccc2)c2cc(Br)c(O)cc12 (configuration not stated)	108
CCCN1CCN(Cc2nc3nc(C)cc(N4CCN(CC)CC4)n3n2)CC1	100
C#CCOc1ccc(C2CC(=O)Nc3c2c(C)nn3-c2nc3ccc(OC)cc3s2)cc1 (configuration not stated)	103
COC(=O)c1c(C)oc2ccc(N(C(=O)c3ccc(Cl)cc3)S(=O)(=O)c3ccc(Cl)cc3)cc12	108
Cc1nn(-c2ccc3nnc(C)n3n2)c2c1C(c1cccc(OCc3ccc(Cl)cc3)c1)CC(=O)N2 (configuration not stated)	146
CCOC(=O)N1CCN(C(=O)c2ccc3c(=O)n(Cc4ccc(Cl)cc4)c(=S)[nH]c3c2)CC1	107
COc1ccc2nc(NC(=O)COC(=O)C(CCSC)NC(=O)c3ccccc3)sc2c1 (configuration not stated)	107
COc1cccc2cc(C(=O)N3CCN(C/C=C/c4ccccc4)CC3)c(=O)oc12	98
C=CCOc1ccc(C2CC(=O)Nc3c2c(C)nn3-c2ccc3nnc(C)n3n2)cc1 (configuration not stated)	103
CCCCn1c(=O)c2sccc2n2c(=O)n(CC(N)=O)nc12	100
CCc1nnc(-c2ccc(S(=O)(=O)N3CCN(C4CCCCC4)CC3)o2)o1	105
COc1ccc(N2CCN(S(=O)(=O)c3cc(-c4cc(C(F)(F)F)on4)sc3C)CC2)cc1	108

Rewritten with values ahead of the structure: part of the list above.
GIV Gai3 FP	molecule
103	C#CCOc1ccc(C2CC(=O)Nc3c2c(C)nn3-c2nc3ccc(OC)cc3s2)cc1 (configuration not stated)
108	COC(=O)c1c(C)oc2ccc(N(C(=O)c3ccc(Cl)cc3)S(=O)(=O)c3ccc(Cl)cc3)cc12

Back to the main list, starting five compounds before the break.
SMILES	GIV Gai3 FP
COc1cccc2cc(C(=O)N3CCN(C/C=C/c4ccccc4)CC3)c(=O)oc12	98
C=CCOc1ccc(C2CC(=O)Nc3c2c(C)nn3-c2ccc3nnc(C)n3n2)cc1 (configuration not stated)	103
CCCCn1c(=O)c2sccc2n2c(=O)n(CC(N)=O)nc12	100
CCc1nnc(-c2ccc(S(=O)(=O)N3CCN(C4CCCCC4)CC3)o2)o1	105
COc1ccc(N2CCN(S(=O)(=O)c3cc(-c4cc(C(F)(F)F)on4)sc3C)CC2)cc1	108
Cc1noc2nc(CCC(=O)NC(C)C)nc(N3CCCCC3)c12	99
OCCNc1nc(NCCO)nc(Nc2nc(-c3ccccc3)cs2)n1	103
Cc1cccc(C(O)(C(=O)NN(C(=O)c2ccco2)c2ccccc2)c2cccc(C)c2)c1	107
CCOc1ccc(C2Oc3ccc(Cl)cc3C3CC(c4cccc(OC)c4)=NN32)cc1 (configuration not stated)	103
Cc1nn(CC(O)Cn2c(-c3ccccc3)c(-c3ccccc3)c3ccc4ccccc4c32)c(C)c1Br (configuration not stated)	104
CC(Nc1nc(-c2nnc(-c3ccccc3)o2)nc2ccccc12)c1ccccc1 (configuration not stated)	103
O=C(CC1(O)C(=O)N(Cc2ccccc2Cl)c2ccccc21)c1ccc2c(c1)OCCO2 (configuration not stated)	105
CC(=O)N1CCC(C(=O)NCc2ccccc2)(N(CCC2=CCCCC2)C(=O)c2ccc(C)cc2)CC1	105
Cc1nc(N2CCN(c3ccc(F)cc3)CC2)c2c(C)c(C)sc2n1	106
CCCCNc1nc(SCC(=O)NCCc2ccc(S(N)(=O)=O)cc2)nc2ccccc12	109
Cc1cc(C)n(-c2nc3c(c(=O)n2CC(=O)N2CCOCC2)CCCC3)n1	98
O=C1CC(c2ccccc2Br)c2scc(-c3ccccc3)c2N1 (configuration not stated)	106
Cc1noc(C)c1S(=O)(=O)N1CCC(C(C)C(=O)NCCc2c[nH]c3ccccc23)CC1 (configuration not stated)	104
Cc1nc(-c2ccc(C)c(S(=O)(=O)NCC(=O)NCc3ccccc3Cl)c2)no1	99
CS(=O)(=O)Nc1ccc(C(=O)N2CCCC(C(=O)NC3CCCC3)C2)cc1 (configuration not stated)	104
Ic1cccc(C2Nc3ccccc3C(c3ccccc3)(c3ccccc3)O2)c1 (configuration not stated)	106
C=CCn1c(SCC(=O)Nc2ccc(OCC)cc2)nc2cc(C(=O)N3CCN(C)CC3)ccc2c1=O	108
CCCN1C(SCC(=O)NCc2ccccc2)=NS(=O)(=O)c2ccccc21	103
CCOc1ccc(C2c3[nH]c4ccccc4c3CCN2C(=O)c2ccc(Cl)cc2Cl)cc1 (configuration not stated)	121
CCc1cccc(-n2nnnc2N2CCN(C(=O)Nc3cccc(C)c3C)CC2)c1	113
COc1ccc(S(=O)(=O)N2CCSC2c2ccc(OC)c(OC)c2)cc1 (configuration not stated)	101
CN(Cc1ccoc1)C(=O)NC1CCCC1	105
O=S(=O)(NCc1cccs1)c1cc(-c2noc(C3CCCC3)n2)cs1	95
O=c1c2cccnc2n(-c2ccccc2)c(=O)n1Cc1ccccc1Cl	102
Cn1nnc2c(Nc3ccc(F)cc3)ncnc21	106
CC(C)c1nn2c(S(=O)(=O)NCc3cccs3)c(C(C)C)nc2s1	103
O=C(CN1C(=O)c2ccccc2C1=O)Nc1cccc(OCc2cc(=O)n3ccccc3n2)c1	102
COc1cc(C2C(C(=O)N3CCOCC3)=C(C)NC3=C2C(=O)CCC3)ccc1OCc1ccccc1 (configuration not stated)	104
O=C(/C=C/c1ccc(Cl)cc1Cl)NCCCn1ccnc1	105
Cc1ccc(-c2noc(C3CC3)n2)cc1S(=O)(=O)NC(C)C(=O)NC(C)C (configuration not stated)	101
COc1cc(OC)c(NS(=O)(=O)c2cc(-c3cc(C(F)(F)F)on3)cs2)cc1Cl	102
COc1ccc2c(c1)C(=O)c1cc(OC)ccc1-2	104
CC1CCC(NC(=O)c2nc(-c3ccc(S(=O)(=O)N(C)C)cc3)no2)CC1 (configuration not stated)	105
CCOc1ccc(-n2c(=S)sc3c2nc(SCC(=O)Nc2ccc(N(C)C)cc2)n2c4ccccc4nc32)cc1	105
Cc1cc(N2CCOCC2)nc(N2CCN(C(=O)CCC3CCCCC3)CC2)n1	106
CCC(=O)N1CCN(c2nc(C)cc(N3CCOCC3)n2)CC1	104
CNC(=O)c1ccc(-c2nc3cc(NS(=O)(=O)c4ccc5c(c4)CCCC5)ccc3n2C)cc1	100
O=C(c1ccc(Cl)s1)N1C[C@@H]2C[C@H](NS(=O)(=O)c3cccs3)[C@H]1C2	101
CCc1ccc(NC(=O)c2sc(-c3cccn3CC)nc2C)cc1	111
Fc1ccc(C2C3=C(Nc4ncnn42)c2ccccc2OC3c2ccc(Cl)cc2)cc1 (configuration not stated)	98
Cc1cccc(-c2cc(N3CCN(C(=O)Cc4ccccc4C)CC3)ncn2)c1	104
CS(=O)(=O)Nc1ccc(C2(C(=O)NCCCN3CCCC3=O)CC2)cc1	102
Cn1c(=O)oc2cc(S(=O)(=O)N3CCC(N4CCOCC4)CC3)ccc21	112
c1cn2cnnc2cc1-c1noc(-c2ccc3c(c2)OCO3)n1	106
Cc1ccc(S(=O)(=O)c2cnc(N3CCC(C(N)=O)(N4CCCCC4)CC3)nc2N)cc1C	107
COc1ccc(NC(=O)c2sc3nc(C)nc(N4CCOCC4)c3c2C)c(OC)c1	105
CN(C)S(=O)(=O)c1cc2c(c([N+](=O)[O-])c1)-c1c(cc(S(=O)(=O)N(C)C)cc1[N+](=O)[O-])C2=NO	110

Shown as labelled records: entries from further up
SMILES: CCc1ccc(NC(=O)c2sc(-c3cccn3CC)nc2C)cc1
  GIV Gai3 FP: 111
SMILES: Fc1ccc(C2C3=C(Nc4ncnn42)c2ccccc2OC3c2ccc(Cl)cc2)cc1 (configuration not stated)
  GIV Gai3 FP: 98
SMILES: Cc1cccc(-c2cc(N3CCN(C(=O)Cc4ccccc4C)CC3)ncn2)c1
  GIV Gai3 FP: 104
SMILES: CS(=O)(=O)Nc1ccc(C2(C(=O)NCCCN3CCCC3=O)CC2)cc1
  GIV Gai3 FP: 102

The list is partial; rates above refer to the full screens.
